Source: PubChem
Ecoli growth = E. coli growth inhibition, primary screen, OD600 | Escherichia coli growth, 23 h; hits give low values | OD600 absorbance (no concentration beside the values) | 330,000 tested, 0.21% active | AID 1053175, 2014;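 active = OD600 absorbance below the run mean of sample wells minus 3.6 SD, in any replicate, cut at about 0.56 in these data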;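 also: stock transfer was 300 nL into about 60 µL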
T cruzi inh = inhibitors of intracellular T. cruzi growth, primary screen, luminescence, NIH3T3 host cells | T. cruzi beta-gal in NIH3T3, 90 h | inhibition, % (no concentration beside the values) | 300,000 tested, 1.4% active | AID 1885, 2009;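 active = mean inhibition across valid replicates above about 55%, limit read from the data; inconclusive = mean below that limit but half or more replicates reach it; inactive = mean below it, under half of replicates reach it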;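 also: signal also drops with host cell toxicity which is not excluded here; 0% = plate median of DMSO wells and 100% = zero luminescence signal; higher percent means less beta-gal luminescence so fewer parasites; stock transfer was 50 nL into about 50 µL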
AF4-AF9 inh = inhibitors of AF4 peptide binding to AF9, primary screen, biochemical, AlphaScreen, biotin-AF4 peptide, FLAG-AF9, single point; Protein AF-9 (Homo sapiens), P42568; inhibition, % at 10 µM; 350,000 tested, 0.47% active; AID 651704, 2012;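 active = every replicate reaching a set inhibition limit, whatever the replicate mean, cut at about 25% in these data; inconclusive = mean inhibition reaches that limit but some replicates miss it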;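 also: 0% = plate neutral control median and 100% = total signal loss; the record names both 10 and 1 µM as test concentration; the first replicate is given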
Target sequence (P42568 whole entry, looked up): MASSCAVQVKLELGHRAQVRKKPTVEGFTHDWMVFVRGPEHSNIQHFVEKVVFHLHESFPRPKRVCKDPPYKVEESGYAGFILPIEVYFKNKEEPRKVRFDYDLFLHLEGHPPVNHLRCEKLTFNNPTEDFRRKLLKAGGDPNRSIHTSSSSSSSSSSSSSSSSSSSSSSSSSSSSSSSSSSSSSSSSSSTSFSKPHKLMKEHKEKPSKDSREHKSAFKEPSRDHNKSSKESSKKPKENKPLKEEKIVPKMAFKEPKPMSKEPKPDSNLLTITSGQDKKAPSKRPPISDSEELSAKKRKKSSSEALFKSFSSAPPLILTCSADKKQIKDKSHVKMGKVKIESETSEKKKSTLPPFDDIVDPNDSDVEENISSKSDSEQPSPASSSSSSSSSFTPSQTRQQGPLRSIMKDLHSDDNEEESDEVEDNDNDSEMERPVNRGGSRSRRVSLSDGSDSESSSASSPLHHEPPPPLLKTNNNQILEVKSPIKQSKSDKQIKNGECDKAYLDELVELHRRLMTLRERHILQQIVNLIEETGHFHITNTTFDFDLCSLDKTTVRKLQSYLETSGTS
FGF22 binding = binders of human FGF22 protein, primary screen, FGF22 synaptogenesis inhibitor project, biophysical, thermal shift, single point; recombinant FGF22 thermal shift, SYPRO orange fluorescence; percent of sucrose octasulfate shift, DMSO zero; calls only at 9.99 µM; AID 651658, 2012; 340,000 tested, 1.5% active;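 active = melting point raised past a set limit in the mean and every replicate; inconclusive = no clear call; three in four hits are not shown here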
Target sequence (Q9HCT0 whole entry, looked up): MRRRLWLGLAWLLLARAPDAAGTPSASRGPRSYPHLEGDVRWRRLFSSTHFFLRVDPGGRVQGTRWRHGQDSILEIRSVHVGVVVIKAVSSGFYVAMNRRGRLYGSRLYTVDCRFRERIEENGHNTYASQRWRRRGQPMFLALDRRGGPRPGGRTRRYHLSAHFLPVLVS
Ecoli rRNA inh = reduced GFP signal of wild-type E. coli, primary screen, bacterial rRNA inhibitor project, GFP/RFP fluorescence, OD600, single point; E. coli WT GFP vs humanized-ribosome RFP mutants, 24 h; hits give low values; DMSO median 0, no signal -100; GFP signal change (wild-type ribosome), % (concentration not given with the values); 350,000 tested, 1.6% active;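 active = significant combined selectivity score with lowered wild-type GFP, culture density cut under 30%, mutant RFP and density less affected; inactive = any of these conditions unmet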; also: one replicate is shown; some compounds called inactive have numbers as strong as hits
Beta cell apopt = inhibitors of cytokine-induced beta cell apoptosis, primary screen, luminescence; AID 435005, 2010; INS-1E cytokine-induced death, ATP luminescence, 48 h; percent of positive-control rescue, neutral wells zero; 300,000 tested, 0.8% active; protection from apoptosis, % (test concentration not listed);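 active = all replicates at 75% or more, or half of them and the mean; inconclusive = half reach 75% but not the mean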;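 also: 0% = cytokine-treated negative control wells and 100% = positive control rescue; higher means more ATP so stronger rescue from cytokine killing; wells of about 40 µL received 100 nL stock; the first replicate is given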
UCH37 DUB inh = inhibitors of human UCH37 deubiquitinase, primary screen, biochemical, Ub-AMC cleavage, fluorescence; inhibition, % (concentration not given with the values); purified proteasome/UCH37; Ubiquitin carboxyl-terminal hydrolase isozyme L5 (Homo sapiens), Q9Y5K5; AID 588478, 2011; 330,000 tested, 0.33% active;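 active = mean of two replicates above 20%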;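 also: 0% = compound-free wells with enzyme and 100% = wells lacking proteasome; stock transfer was 100 nL into about 20 µL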
Target sequence (Q9Y5K5 whole entry, looked up): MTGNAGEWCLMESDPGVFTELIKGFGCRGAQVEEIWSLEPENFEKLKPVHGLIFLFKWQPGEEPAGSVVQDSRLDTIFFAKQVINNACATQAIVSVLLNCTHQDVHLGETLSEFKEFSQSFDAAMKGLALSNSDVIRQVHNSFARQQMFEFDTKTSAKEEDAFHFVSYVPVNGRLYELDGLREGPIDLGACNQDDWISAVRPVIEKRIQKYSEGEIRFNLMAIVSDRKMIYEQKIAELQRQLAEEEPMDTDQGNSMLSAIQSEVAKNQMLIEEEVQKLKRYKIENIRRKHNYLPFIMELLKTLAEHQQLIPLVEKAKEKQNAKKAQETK
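Material: human UCH37 enzyme supplied as purified proteasome complex / Amount: 0.15 nM proteasome as dispensed / Buffer or medium: pH 7.4 Tris-HCl (50 mM) with ovalbumin, ATP-MgCl2, DTT / Times: preincubation 30 min, reaction 25 min, room temperature / Technique: AMC fluorescence from Ub-AMC cleavage, excitation 355 nm, emission 460 nm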
Bfl-1 A1 inh = caspase 3/7 activation in MEF A1-2A-BIM cells, primary screen, A1 inhibitor project, cell-based, luminescence, HTS; Caspase-Glo 3/7 luminescence, 3 h; percent of clofoctol response, vehicle zero; caspase activation, % (no concentration beside the values); 330,000 tested, 0.066% active; AID 2462, 2010;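 active = over half of replicate activation scores above 10%, or exactly half above 10 with the replicate mean above 10; inconclusive = replicate mean below 10 yet half the replicates above 10; inactive = over half of replicates below 10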;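 also: wells of about 30 µL received 50 nL stock; many hits fall short of the cut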
Ecoli rRNA inh OD600 = further read-out of Ecoli rRNA inh, marked with its call; OD600 change, %; measured here: OD600 growth;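 optical density of the mix in the first replicate; 0 = DMSO median and -100 = no signal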
Ecoli rRNA inh RFP = recorded beside Ecoli rRNA inh, whose call it bears; RFP signal change, %; measured here: RFP humanized mutant strains;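 first replicate; 0 = DMSO median and -100 = no signal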
* hit, by the source's call; i = inactive; ? = inconclusive; . = not tested or not shown; + = active, no number; & = joins results of further samples; ! = not active in a repeat. These rows are one share of the data; count on the stated rates, not on these rows.

SMILES | Ecoli growth | T cruzi inh | AF4-AF9 inh | FGF22 binding | Ecoli rRNA inh | Ecoli rRNA inh OD600 | Ecoli rRNA inh RFP | Beta cell apopt | UCH37 DUB inh | Bfl-1 A1 inh
COc1ccc(CCn2c(Br)nc3c2c(=O)[nH]c(=O)n3C)cc1 | 0.615 | -22.1 | . | . | . | . | . | 14.5 | 0.4 | 1.5
COc1ccccc1-n1nnnc1SCC(=O)Nc1ccccc1 | 0.744 | -26.6 | -9.4 | i | 16.1 | 15.4 | 4.3 | 0.5 | 1.0 | 0.0
Cc1ccc(CNC(=O)c2nnc(Cc3ccc(Cl)cc3)o2)cc1 | 0.725 | 3.7 | -1.6 | i | 6.2 | 10.4 | 2.6 | 0.6 | -1.8 | 0.4
Cc1cc(=O)oc2cc(OCC(=O)OCC(=O)N3CCc4ccccc43)ccc12 | 0.77 | 2.4 | . | . | . | . | . | -0.3 | -8.2 | -0.3
Cc1ccc(C(C)NC(=O)C23CC4CC(CC(C4)C2)C3)cc1 (centres undefined) | 0.72 | 18.8 | -1.8 | i | 17.9 | 11.3 | 1.3 | 3.5 | 5.5 | 0.2
COc1cccc(N2CC(NC(=O)C(=O)c3c(C)[nH]c4ccccc34)CC2=O)c1 (centres undefined) | 0.694 | -0.1 | 2.3 | i | -3.8 | -8.3 | -0.6 | -5.7 | 6.3 | 0.2
O=C(Cn1c(=O)c(=O)n(Cc2ccccc2)c2ccc(Cl)cc21)Nc1cc(F)ccc1F | 0.731 | 30.8 | . | . | . | . | . | -2.1 | -46.4 | -0.4
O=C1CC(c2ccccc2F)c2c(c3ccccc3[nH]c2=O)O1 (centres undefined) | 0.668 | 4.0 | -1.9 | i | 16.9 | 0.9 | 2.7 | -4.7 | -2.6 | 0.0
Cc1ccc(OCCSc2nnc(-c3cccs3)n2C)cc1 | 0.655 | 14.1 | . | . | . | . | . | 10.4 | 0.3 | -0.1
Cc1ccc(-c2cc(C(=O)OC3CCOC3=O)c3ccccc3n2)c(C)c1 (centres undefined) | 0.714 | -15.5 | 1.0 | i | -8.6 | -0.1 | 4.6 | -0.8 | 1.5 | 0.0
COc1ccccc1N1CCN(C(c2cccs2)C(C)NC(=O)c2ccncc2)CC1 (centres undefined) | 0.635 | -5.4 | 9.5 | i | 5.6 | 9.4 | -1.0 | -0.2 | 1.5 | 0.9
Cc1ccc(S(=O)(=O)Nc2ccc(S(=O)(=O)N3CCCC3)cc2)cc1 | 0.756 | 6.6 | . | . | . | . | . | 4.8 | -2.2 | 0.1
CC(C)Oc1cccc(-c2cc(C(=O)N3CCN(c4ncccn4)CC3)c3ccccc3n2)c1 | 0.698 | 10.1 | . | . | . | . | . | 0.2 | 3.4 | 1.0
COC(=O)c1ccc(-c2nc3cc(Cl)c(N)cc3s2)cc1 | 0.74 | 5.2 | . | . | . | . | . | 7.5 | -37.9 | 0.1
Cc1cc(-c2ccc(S(=O)(=O)N3CCN(c4ccc(F)cc4)CC3)s2)on1 | 0.724 | 1.8 | 1.1 | i | 10.1 | 14.4 | -2.2 | 6.3 | 3.5 | 0.7
O=C(O)CC(NC(=O)Cc1ccc(Cl)cc1)c1ccco1 (centres undefined) | 0.699 | -25.3 | -2.4 | i | 17.8 | 12.2 | 3.4 | -1.4 | 2.2 | 0.3
CS(=O)(=O)NN1C(=O)c2ccccc2NC1c1cc2ccccc2nc1Cl (centres undefined) | 0.676 | -3.5 | -0.3 | i | 20.4 | 17.1 | 5.7 | -3.3 | -3.5 | 0.2
CCC1CCCCN1CCCNC(=O)CNC(=O)Cn1ccc2ccccc2c1=O (centres undefined) | 0.686 | -1.8 | . | . | . | . | . | . | 3.5 | 0.6
COc1ccc(C2=Nc3ccc(Br)cc3C(c3ccccc3)N2CC(=O)NN)cc1 (centres undefined) | 0.686 | 3.0 | . | . | . | . | . | 2.5 | 7.4 | 0.5
Cc1c(N2C(=O)/C(=C\c3cccc4ccccc34)SC2=S)c(=O)n(-c2ccccc2)n1C | 0.767 | -3.9 | . | . | . | . | . | -11.1 | 6.3 | 0.0
Cn1c(CNC(=O)C(Cc2ccccc2)NC(=O)c2cccc(F)c2)cc(=O)n(C)c1=O (centres undefined) | 0.624 | 1.8 | -0.9 | i | 8.0 | 6.5 | 4.5 | -1.0 | 0.9 | 0.0
CCOc1cc(C2C(C(=O)N3CCOCC3)=C(C)NC3=C2C(=O)CCC3)ccc1O (centres undefined) | 0.708 | -14.0 | -5.7 | i | 11.0 | 3.4 | 1.4 | -7.9 | -11.3 | -0.4
CCC(CC)NC(=O)CSc1nnc(-c2c[nH]c3ccccc23)o1 | 0.681 | -10.5 | -2.7 | i | 2.1 | 3.8 | -0.7 | -12.9 | -0.9 | 0.0
COc1ccc(CN(C)CC(O)COC(c2ccccc2)c2ccccc2)c(OC)c1OC (centres undefined) | 0.632 | 31.7 | 8.7 | i | 4.6 | -17.2 | 10.1 | . | -0.1 | ?
Cc1ccc(N2C(N)=C(C#N)C(c3cccnc3)C3=C2CC(C)(C)CC3=O)cc1 (centres undefined) | 0.72 | 0.9 | . | . | . | . | . | -12.3 | 3.5 | 0.7
The results go on.
SMILES | Ecoli growth | T cruzi inh | AF4-AF9 inh | FGF22 binding | Ecoli rRNA inh | Ecoli rRNA inh OD600 | Ecoli rRNA inh RFP | Beta cell apopt | UCH37 DUB inh | Bfl-1 A1 inh
Cc1ccc(C(=O)OCc2nnc(-c3ccccc3)o2)s1 | 0.669 | -11.3 | -18.5 | i | -7.7 | -20.4 | -1.2 | -1.8 | -0.3 | -0.8
Cc1cc(N2CCN(C)CC2)nc2ccc(NC(=O)CCC(=O)NCCC3=CCCCC3)cc12 | 0.712 | . | . | . | . | . | . | -5.5 | -82.8 | 0.9
c1ccc2[nH]c(SCc3cscn3)nc2c1 | 0.688 | -1.9 | . | . | . | . | . | -6.3 | 5.2 | -0.9
CC(C)CCNC(=O)NC(=O)COC(=O)/C=C/c1cccc([N+](=O)[O-])c1 | 0.705 | -20.1 | -30.5 | i | 10.6 | 8.1 | 0.1 | -1.8 | 2.4 | 0.8
CN1C(=S)NC(C)(C)CC1(C)c1ccc(O)cc1O (centres undefined) | 0.725 | 0.2 | . | . | . | . | . | -4.8 | 1.8 | -0.6
O=C(CSc1nnc(-c2ccncc2)n1-c1ccccc1Cl)Nc1ccc(C(=O)O)cc1 | 0.655 | -6.1 | -2.5 | i | 13.9 | 18.0 | 2.1 | -6.7 | 1.2 | 0.5
CC1(C)C(=O)Nc2ccccc2N1C(=O)CN1C(=O)C(=O)N(C2CCCC2)C1=O | 0.706 | -15.4 | -2.1 | i | 9.1 | 15.6 | -0.7 | 3.1 | 3.7 | 0.8
CCSc1ncc(Cl)c(C(=O)Nc2ccc(S(N)(=O)=O)cc2)n1 | 0.669 | ? | -1.7 | i | -17.7 | -10.4 | -3.5 | 3.2 | 1.0 | 0.0
O=C(c1cc2cc3ccc(Cl)cc3nc2o1)N1CCN(Cc2ccc3c(c2)OCO3)CC1 | 0.685 | . | 11.3 | i | 13.9 | 12.1 | 0.2 | . | -1.5 | .
CN=C(Nc1ccccc1)SC1CC(=O)N(c2ccc(C(=O)OC)cc2)C1=O (centres undefined) | 0.686 | 17.0 | . | . | . | . | . | -0.9 | 5.0 | 0.0
CCC(C)(C(=O)NC1CCCCC1)N(Cc1ccco1)C(=O)CC1NC(=O)NC1=O (centres undefined) | 0.737 | 6.3 | . | . | . | . | . | -3.8 | 1.4 | -0.5
O=C(COc1ccccc1)Nc1ccccc1C(=O)NC1CC1 | 0.674 | -8.2 | -2.2 | i | 17.1 | 17.0 | 4.1 | -5.1 | -1.6 | 0.4
O=C1/C(=C\c2cc(Br)cc(Br)c2O)SC(=S)N1Cc1ccccc1 | 0.677 | 7.8 | . | . | . | . | . | 0.0 | 9.2 | -0.8
COc1ccc(NC(=O)CN(C)C(=O)CCNC(=O)Nc2ccccc2)cc1 | 0.68 | . | -2.3 | i | 0.6 | 7.3 | -1.1 | . | 4.3 | .
OC(CNCc1ccccc1C(F)(F)F)C(F)(F)F (centres undefined) | 0.654 | -27.8 | 0.2 | i | 17.1 | 7.9 | 3.3 | 2.6 | 0.2 | -0.2
CCN(CC)S(=O)(=O)c1cccc(-c2nnc(SC(C)C(N)=O)n2CCc2ccccc2)c1 (centres undefined) | 0.766 | 9.6 | . | . | . | . | . | -5.8 | 3.5 | -1.0
COc1ccccc1N1CCN(C(=O)c2nn(C)c3c2CS(=O)(=O)c2ccccc2-3)CC1 | 0.671 | 7.9 | -0.5 | i | -8.1 | -10.7 | -6.5 | -4.5 | 3.0 | -0.1
O=C(Nc1ccccc1)c1cc2c(=O)c3ccccc3oc2nc1C(F)(F)F | 0.734 | 8.7 | . | . | . | . | . | . | 3.2 | 0.0
Cc1ccc(C(=O)N(CC(=O)NC2CCCC2)c2ccccc2C)s1 | 0.677 | 0.9 | -0.9 | i | -19.2 | -21.1 | 1.9 | 2.3 | 2.3 | 0.2
COc1cc(NC(=O)c2cnc(N)s2)cc(C(=O)Nc2cccc(C(F)(F)F)c2)c1 | 0.639 | 6.9 | 0.8&14.2 | +! | -44.7&-17.3 | -62.4&-38.2 | -10.1&1.9 | 2.5 | 3.6 | -1.2
Cc1c(NC(=S)NC(=O)c2sc3ccccc3c2Cl)cccc1C(=O)O | 0.648 | 1.4 | -1.9 | i | -5.8 | -14.1 | 9.1 | -3.2 | 5.4 | -2.8
Cc1ccccc1CCNC(=O)c1cc(C2CC2)nc2c1cnn2C(C)C | 0.626 | . | -1.6 | i | -24.5 | -43.5 | 20.9 | 0.8 | -10.4 | 0.0
Cc1cc(C)n(-c2nc(NCC(C)O)c3c4c(sc3n2)COC(C)(C)C4)n1 (centres undefined) | 0.659 | -5.4 | . | . | . | . | . | 13.4 | -199.3 | -1.4
Cc1noc(C)c1NC(=O)Nc1ccc2c(c1)CC(=O)N([C@H](C)CO)C[C@@H](C)[C@H](CN(C)CC1CCCCC1)O2 | . | . | -1.3&1.9 | i | -1.5&-1.7 | -8.6&9.7 | 0.2&3.1 | -7.9 | 1.2 | 0.1
CCOC(NC(=O)c1ccccc1)C(NC(=O)c1ccccc1)OCC (centres undefined) | 0.684 | -11.3 | . | . | . | . | . | 4.9 | 3.7 | 0.0
